# Assay outcomes from PubChem BioAssay.
# BJeLR viability: BJeLR cell viability loss | BJeLR (HRASV12) viability, CellTiter-Glo ATP luminescence, 48 h; reference of the scale not given here | inhibition, % (concentration not given with the values) | 300,000 compounds, 0.17% hits | AID 1554;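 active = replicate mean above 50%; inconclusive = above 50% but judged a plate artefact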;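 note: 50 nL library stock added to about 25 µL; numbers are from one replicate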
# Sa RN4220 lethal: kills Staphylococcus aureus RN4220; 330,000 compounds, 0.33% hits; inhibition, % (concentration not given with the values); S. aureus RN4220 growth, OD600, 16 h;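 active = z-score of -3 or lower and OD600 up to 0.18 on both plates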;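 note: plate controls were untreated cells for no effect and reference antibiotic for full effect; stock transfer was 100 nL into about 80 µL; one replicate is shown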
# Mtb hypoxia inh: reduces hypoxia-regulated biosensor signal in M. tuberculosis | M. tuberculosis hypoxia-regulated fluorescent reporter, fluorescence | fluorescence inhibition, % (concentration not given with the values) | 300,000 compounds, 0.1% hits | AID 1159583;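 active = 35 to 45% if threefold the growth effect, above 45% if 1.5-fold the growth effect; inactive = the rest, general growth blockers included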;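 note: wells of about 50 µL received 100 nL stock; 0% = vehicle wells and 100% = reference inhibitor wells; whole bacteria with a GFP reporter of the hypoxia response; strong numbers were not always called active; many hits fall short of the cut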
# PrP UTR inh: inhibition of PrP 5' UTR reporter expression | cell-based PrP 5' UTR mRNA reporter, plate reader | inhibition, % (concentration not given with the values) | 340,000 compounds, 0.35% hits;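 active = every replicate at 50% or more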;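 note: 0 = median of the neutral control wells; tested in H4 reporter cells; numbers are from one replicate; inactives centre near -14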
# ugtP null kill: growth inhibition of S. aureus ugtP deletion strain; S. aureus RN4220 ugtP deletion, OD600 growth, 16 h; some inactives read as strong as hits; growth inhibition, % (no concentration beside the values); 330,000 compounds, 0.54% hits;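 active = z-score under -3 and OD600 up to 0.15 on both plates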;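 note: plate controls were untreated wells for no effect and antibiotic for full effect; wells of about 80 µL received 100 nL stock; the first replicate is given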
# Autofluor counter: flagged as autofluorescent in microsphere protease counterscreen; fluorescence intensity (no concentration beside the values); 360,000 compounds, 3.1% hits; compound autofluorescence counterscreen, microsphere flow cytometry; hits give high values;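 active = at least 3 SD above the mean of all compounds, about 16000 in these data; inconclusive = too few beads counted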;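 note: 100 nL of 1 mM stock went into each well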
# Mtb hypoxia inh growth: also measured in Mtb hypoxia inh; calls as there; growth inhibition, %; measured here: M. tuberculosis growth (absorbance);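 0% = vehicle and 100% = reference antibiotic; read after six days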
# The depositor's hits bear a star; ? = inconclusive; / = no result given.
SMILES,BJeLR viability,Sa RN4220 lethal,Mtb hypoxia inh,Mtb hypoxia inh growth,PrP UTR inh,ugtP null kill,Autofluor counter
COc1cc(/C=C/C(=O)O)cc(S(=O)(=O)Nc2ccc(S(=O)(=O)N3CCCCC3)cc2)c1OC,/,-2.0,-8,2,-12,-4,5800
COc1ccc(N2C(=O)CCC(C(=O)NCc3cccnc3)C2c2ccc(OC)c(OC)c2)cc1 (stereo not given),-1,3.4,9,5,-19,3,3110
O=C(OCC(=O)N1CCOCC1)c1ccc(Cl)cc1[N+](=O)[O-],-2,0.5,10,8,-26,10,5283
Cc1nnc(SCCOc2ccccc2)s1,4,-2.3,-8,3,-16,5,2057
Cc1cc(C)n(CCOc2ccc(Br)cc2)n1,-6,5.0,20,15,-33,7,3489
Cc1cc(C)c(S(=O)(=O)c2ccc(F)cc2C)c(=O)[nH]1,3,-2.6,5,-4,-31,0,2826
CCCc1nnc(SCc2ccc(OCC)cc2)n1N,-2,1.5,/,/,-48,1,2733
CC(C(=O)NCC1CCCO1)c1ccc([N+](=O)[O-])cc1 (stereo not given),5,3.2,12,4,-2,11,2010
CCOc1ccc(C(=O)N[C@H](C(=O)Nc2cccc(S(=O)(=O)N3CCCCC3)c2)C(C)C)cc1,-8,3.3,1,5,-28,-7,9427
COC(=O)c1ccccc1S(=O)(=O)N1CCC(C(=O)OCC(=O)NCC(F)(F)F)CC1,-13,5.4,3,-4,23,3,3762
CCC12C=CCN3CCC4(c5cc(Br)c(OC)cc5N(C)C4C(O)(C(=O)OC)C1OC(C)=O)C32 (stereo not given),-1,7.0,/,/,-3,2,5187
Fc1ccccc1-c1nc2nc3ccccc3nc2n1CC1CCCO1 (stereo not given),-4,0.6,8,9,-17,14,?
CSc1ccccc1C(=O)NCCSc1ccccc1,10,5.6,4,9,-22,9,16492*
COc1ccccc1CNC(=O)CSc1cc(=O)n(C)c2ccccc12,5,4.3,6,0,-14,10,2620
Nc1ccc2c(S(=O)(=O)O)cccc2c1S(=O)(=O)O,/,8.1,7,10,-3,6,3848
COc1cccc(NC2CC(=O)N(CCc3ccccc3)C2=O)c1 (stereo not given),-3,-1.3,/,/,-22,2,4539
O=C(c1sccc1-n1cccc1)N1CCCC1,7,5.9,16,8,-10,-1,2985
O=C(C(F)C(F)(F)F)N1CCN(c2ccccc2)CC1 (stereo not given),-9,-0.4,12,2,-25,3,9488
CC1=CC(C)C(CN(CCC[N+](C)(C)C)C(=O)Nc2ccccc2)C(C)C1 (stereo not given),0,1.2,-9,-3,-16,0,5477
O=C(CCSCc1ccc(Cl)cc1)NC1CCCC1,0,3.9,16,5,-16,-4,2149
NC(Cc1ccccc1)c1nc2ccccc2[nH]1 (stereo not given),3,-0.7,10,1,-35,10,4143
Cc1ccccc1N1CCN(C2=NC(=O)/C(=C\c3cccs3)S2)CC1,11,/,/,/,-8,/,2660
CC1(C(=O)OCC(=O)NCc2ccc(Cl)cc2)CC1(Cl)Cl (stereo not given),/,-0.1,12,13,-16,3,3667
Cc1ccc(-c2cc(C(=O)N3CCN(c4ccc(O)cc4)CC3)c3ccccc3n2)cc1,/,3.0,9,5,-35,8,2990
CN(C)CCCNS(=O)(=O)c1cc(Cl)c(Cl)cc1Cl,-15,2.2,-1,5,-48,4,3786
CCOc1ccc(CCNC(=O)Cn2c(=O)oc3ccccc32)cc1OCC,-4,4.8,3,6,-9,3,9784
COc1cc(C=NNC(=O)CN2CCOCC2)ccc1OCC(=O)Nc1ccc(C)c(C)c1,/,1.8,5,8,/,2,/
COc1cccc(NC(=O)CN(C)CC(=O)NCc2ccc3c(c2)OCO3)c1,/,-2.9,-9,3,-10,-2,3771
OC(Cc1cccnc1)(c1ccccc1)c1ccccc1,/,5.5,22,14,-9,9,3946
CC(C)c1ccc(NC(=O)c2cc(S(=O)(=O)NCC3COc4ccccc4O3)ccc2F)cc1 (stereo not given),-7,6.0,/,/,0,-10,1987
CN(C)CCCSc1nc2ccccc2s1,0,4.7,7,9,-12,0,2524
COc1ccccc1OC[C@H](O)CO,-2,/,/,/,-29,/,6082
Cc1ccc(CN(Cc2ccco2)C(=S)NCC(=O)O)cc1,10,-1.0,-7,-2,-11,-2,8494
CC1=C(C(=O)OCc2ccccc2)C(c2ccc(Br)cc2)NC(=O)N1CCCCCC(=O)O (stereo not given),-6,9.4,1,-5,-67,10,3288
Cc1ccc(Cc2nnc(SCC(=O)Nc3ccccc3)n(N)c2=O)cc1,12,1.9,10,4,-8,2,6158
OCCN(Cc1ccccc1)Cc1ccccc1O,0,5.8,11,1,-14,-4,3502
Cc1noc(C)c1S(=O)(=O)N(CC(=O)N1CCCCCC1)c1ccc(C(C)C)cc1,-3,1.3,/,/,-2,4,4184
c1ccc(C(c2nnnn2C2CCCCC2)N2CCc3ccccc3C2)nc1 (stereo not given),-2,14,9,1,-11,-5,9787
COc1ccc(-c2[nH]ncc2C=NNC(=O)c2ccc(Br)cc2)c(OC)c1,/,3.3,9,2,/,2,/
Cc1cc(NC(=O)COc2ccc([N+](=O)[O-])cc2)no1,/,-1.0,3,1,/,3,5760

# Ordered by molecular weight (descending): 13 of the compounds above
SMILES,BJeLR viability,Sa RN4220 lethal,Mtb hypoxia inh,Mtb hypoxia inh growth,PrP UTR inh,ugtP null kill,Autofluor counter
CC1=C(C(=O)OCc2ccccc2)C(c2ccc(Br)cc2)NC(=O)N1CCCCCC(=O)O (stereo not given),-6,9.4,1,-5,-67,10,3288
CC(C)c1ccc(NC(=O)c2cc(S(=O)(=O)NCC3COc4ccccc4O3)ccc2F)cc1 (stereo not given),-7,6.0,/,/,0,-10,1987
Cc1noc(C)c1S(=O)(=O)N(CC(=O)N1CCCCCC1)c1ccc(C(C)C)cc1,-3,1.3,/,/,-2,4,4184
COc1ccc(-c2[nH]ncc2C=NNC(=O)c2ccc(Br)cc2)c(OC)c1,/,3.3,9,2,/,2,/
Cc1ccc(Cc2nnc(SCC(=O)Nc3ccccc3)n(N)c2=O)cc1,12,1.9,10,4,-8,2,6158
c1ccc(C(c2nnnn2C2CCCCC2)N2CCc3ccccc3C2)nc1 (stereo not given),-2,14,9,1,-11,-5,9787
CN(C)CCCNS(=O)(=O)c1cc(Cl)c(Cl)cc1Cl,-15,2.2,-1,5,-48,4,3786
Cc1ccc(CN(Cc2ccco2)C(=S)NCC(=O)O)cc1,10,-1.0,-7,-2,-11,-2,8494
OC(Cc1cccnc1)(c1ccccc1)c1ccccc1,/,5.5,22,14,-9,9,3946
OCCN(Cc1ccccc1)Cc1ccccc1O,0,5.8,11,1,-14,-4,3502
CN(C)CCCSc1nc2ccccc2s1,0,4.7,7,9,-12,0,2524
NC(Cc1ccccc1)c1nc2ccccc2[nH]1 (stereo not given),3,-0.7,10,1,-35,10,4143
COc1ccccc1OC[C@H](O)CO,-2,/,/,/,-29,/,6082

# Carrying on.
SMILES,BJeLR viability,Sa RN4220 lethal,Mtb hypoxia inh,Mtb hypoxia inh growth,PrP UTR inh,ugtP null kill,Autofluor counter
COc1ccc(CNC(=O)C2CCC(CNS(=O)(=O)c3ccc(C)cc3)CC2)cc1 (stereo not given),0,0.2,-7,2,-17,3,3999
O=S(=O)(c1ccc(Cl)c(C(F)(F)F)c1)N1CCN(CC(O)COCC2CCCO2)CC1 (stereo not given),-12,2.7,15,19,-17,-3,3995
CCNC(=O)COc1ccc2ccccc2c1,-8,7.9,20,11,-36,0,4284
O=S(=O)(c1ccc(F)cc1)N1CCC(c2nc3ccccc3[nH]2)CC1,3,0.8,-8,-4,0,9,3681
CC(C)(Oc1ccc(Cl)cc1)C(=O)N1CCN(C(=O)c2ccco2)CC1,-2,3.8,-9,-9,-13,0,3433
CC(=O)Oc1ccc(N(C(C)=O)S(=O)(=O)c2ccc3ccccc3c2)cc1Br,3,9.3,4,-2,-14,-10,4067
CCOC(=O)c1cccc(NC(=O)C2CCC(CNc3c(N4CCOCC4)c(=O)c3=O)CC2)c1 (stereo not given),4,-2.0,-4,-3,-12,-11,5209
C/C(=N\NC(=O)CSc1nnc(C)s1)c1ccc(Cl)cc1,6,/,/,/,-21,/,2474
Cc1ccc(SCC(=O)OCC(=O)N(CC(C)C)c2c(N)n(Cc3ccccc3)c(=O)[nH]c2=O)cc1C,-7,15,12,1,0,14,6187
CCO[C@@H]1OC(C(=O)NCc2nc3ccccc3[nH]2)=C[C@H](c2cn(C(C)=O)c3ccccc23)[C@H]1CCCO,-6,/,/,/,3,/,3840
O=C(Nc1ccc2c(c1)COC2=O)c1ccc(Cl)c(Cl)c1,11,-5.0,-6,-18,-69,-15,7014
CC(=O)C1=C(C)NC(SCC(=O)c2ccc(Cl)cc2Cl)=C(C#N)C1c1ccco1 (stereo not given),13,8.1,7,13,0,-40,7719
CC(=O)Nc1ccc(S(=O)(=O)Nc2nnc(C(C)(C)C)s2)cc1,-5,4.7,0,8,-30,5,4193
COCCn1c(SCC(=O)N2CCc3ccccc3C2)nc2ccccc2c1=O,-2,3.0,1,-10,-21,-3,2552
CS(=O)(=O)c1ccc(Cl)c(NC(=O)Cc2c(F)cccc2Cl)c1,8,4.6,8,9,-19,6,3844
S=c1nc(-c2cccc(Br)c2)[nH][nH]1,0,7.6,-4,1,-14,1,10838
CC1CCN(C(=O)CSc2ccc(-c3ccc(F)cc3)nn2)CC1,-14,0.6,-8,-10,-21,-1,23070*
CN(c1ccccc1)S(=O)(=O)c1cccc(C(=O)NCc2ccccc2CN2CCCC2)c1,/,3.7,7,8,-3,1,?
Cc1cccc(-n2c(CCn3nc(C)c([N+](=O)[O-])c3C)n[nH]c2=S)c1,3,-2.7,1,13,-14,-7,16467*
CC(=O)C1=C(O)C(=O)N(c2nccs2)C1c1ccc(F)cc1 (stereo not given),-7,6.4,-9,-5,-11,6,2471
CCOC(=O)C1=C(C)NC(C)=C(C(=O)OCC)C1c1ccc(OC)cc1,-8,-2.4,-7,6,9,-9,3150
O=C(Nc1cccc(F)c1)C1CCN(C(=O)N2CCOc3ccccc32)CC1,0,-9.0,7,9,-9,-8,5647
O=C(CNCc1ccccn1)N1CCc2ccccc2C1,4,-4.7,-5,-7,-15,-8,4152
O=C(CSc1nc2[nH]ncc2c(=O)[nH]1)N1CCCCC1,19,3.6,12,6,-9,5,1924
CC(C(=O)NCC1(c2ccccc2)CCCC1)N1CCOCC1 (stereo not given),-3,1.3,-5,10,-19,1,23756*
c1ccc2c(c1)Nc1nccnc1S2,/,3.8,11,2,-44,8,2369
COc1cccc(-c2nc(=S)c3c(n2Cc2ccco2)CCCC3)c1,-15,-3.3,6,9,-22,85*,12282
Cc1ccc(-c2nnc(CSc3nc(C)nc4sc(C)c(C)c34)o2)cc1,2,0.9,8,11,/,0,/
CCCn1c(C(O)c2cc(OC)ccc2OC)nc2ccccc21 (stereo not given),-17,7.0,/,/,-3,1,3112
O=C(O)c1cc(S(=O)(=O)N2CC3CC3C2C(=O)O)c(Cl)cc1Cl (stereo not given),9,0.0,9,-4,-27,6,5203
O=C(NCN1C(=O)C2C3C=CC(C3)C2C1=O)Nc1cccnc1 (stereo not given),5,4.6,1,9,-14,3,3286
Cc1cccc(NC(=O)c2ccc(-n3cncn3)c([N+](=O)[O-])c2)c1,-2,1.5,-8,4,-10,5,?
O=C(NCCc1c[nH]c2ccccc12)c1ccco1,-14,3.9,5,5,-16,5,3784
CN(c1cccc(NC(=O)Nc2cccc(Cl)c2)c1)S(C)(=O)=O,1,-3.5,/,/,-36,-4,4253
CCOc1cc(/C=N/NC(N)=O)cc(Br)c1OCC(=O)Nc1cccc2ccccc12,-4,/,/,/,-7,/,5858
O=C(COc1coc(CN2CCN(c3ccccc3)CC2)cc1=O)Nc1cccc(F)c1,-4,4.3,2,-2,-13,9,?
